Screening data: PubChem BioAssay, National Center for Advancing Translational Sciences (NCATS)
2A Renilla: FMDV 2A StopGo reporter, Renilla signal. AID 1745857. 120,000 tested, 0.32% active. Potency, µM (top dose mostly 57.5 µM), inactives show at the highest dose signal change, negative = less light. HEK cells with a luciferase reporter of 2A StopGo recoding; active means well fitted falling curve with a large enough effect; inconclusive means small, poorly fitted or top-dose-only effect; inactive means no such curve, though single readings can be large or run the other way; also: nearly all actives have a fitted effect of over 55% in size; overnight with compound
StopGo FLuc: lowers the firefly signal of an FMDV 2A StopGo reporter. HEK cells with a luciferase reporter of 2A StopGo recoding. Potency, µM (top dose mostly 57.5 µM), for the others: top-dose signal change, negative = less light. 120,000 tested, 0.23% active; active = well fitted falling curve with a large enough effect; inconclusive = small, poorly fitted or top-dose-only effect; inactive = no such curve, though single readings can be large or run the other way; also: nearly all actives have a fitted effect of over 60% in size; overnight with compound
* = called active by the depositor; ? = inconclusive; [ ] = dose if it differs, or a comment. % is scaled to controls: 0 for no effect and ±100 for the full control effect; potency is read from the fitted curve at half-maximal effect. Not all compounds are listed, so the mix of outcomes need not match the whole.

SMILES	2A Renilla	StopGo FLuc
O=C(Nc1cccc(C(F)(F)F)c1)C1=C(c2ccccc2)S(=O)(=O)CCO1	?	?
Cn1c(=O)n(C)c2cc(NS(=O)(=O)c3ccc(Cl)cc3)c(NCc3ccccc3)cc21	396%[activator]	294%[activator]
CCC(C)Nc1nc2c(c(=O)n(C)c(=O)n2C)n1Cc1ccc(Cl)cc1 (stereo not given)	-10%	-2%
CC(=O)OCc1cnc(C)c2oc(=O)c(C(=O)Nc3cc(F)ccc3C)cc12	-11%	0%
CC(C)n1nc(C(=O)OCn2nnc3ccccc3c2=O)c2ccccc2c1=O	5%	0%
OC(C#CCN1CCOCC1)(c1ccccc1)C1CC1 (stereo not given)	5%	4%
COc1cc(C(=O)NCc2coc(-c3cccs3)n2)ccc1OC(F)F	-3%	-10%
CCc1nn(CC(=O)N2CCN(c3ccc(Cl)cc3)CC2)c(=O)c2cc3occc3n12	-15%	-22%
CN(C)c1ccc(C(=O)Nc2c(C(=O)NC(C)(C)C)oc3ccccc23)cc1	-10%	-18%
Cc1ncc(CO)c2c1Oc1nc(-c3ccccc3F)nc(SCC(=O)N3CCCCC3)c1C2	-21%	-17%
CC(C)c1ccc(C(=O)NN=C2CCC(c3ccccc3)CC2)cc1 (stereo not given)	15%	121%[activator]
O=c1oc2ccccc2cc1-c1cn2ccccc2n1	17%	-73%
CC(=O)Nc1ccc2nc(-c3cc(C)ccc3C)[nH]c2c1	46%[activator]	24%
N#Cc1nc(COc2ccc(Cl)cc2)oc1N1CCCCC1	10%	18%
COc1ccc(OC)c(C(O)CNC(=O)CN)c1 (stereo not given)	-12%	-18%[11.5 µM]
CCOc1ccc(/C=C/C(=O)c2ccc(Cl)cc2)cc1	6%	46%[activator]
CC(C)CSc1oc(-c2ccco2)nc1S(=O)(=O)c1ccccc1	111%[activator]	4%
CN(Cc1ccccc1)C(=O)COc1ncnc2ccccc12	-1%	15%
O=C(/C=C/C(=O)OCCc1ccccc1)OCCc1ccccc1	-19%	-5%
CCC(C(=O)Nc1cc(Cl)ccc1C)N1C(=O)CCn2nc(C)cc21 (stereo not given)	34%[activator]	53%[activator]
COc1cccc(CNC(=O)Cn2cccc2C(=O)c2ccccc2)c1	?	16%
CCCCCCCCN1C(=O)[C@@H](CC(=O)N2CCN(C(=O)c3ccco3)CC2)C[C@@]2(C(=O)OC)C1=C[C@H](COCc1ccccc1)O[C@@H]2C	8%	1%
CCCCn1c(=O)n(CC(O)COc2ccc3ccccc3c2)c(=O)c2c1ncn2C1CCCC1 (stereo not given)	-8%	-17%
Cc1cn(C)c(CC(=O)N2CCN(c3ccc(F)cc3)CC2)c1C(=O)O	6%	6%
O=C(Nc1ccc(Br)cc1C(=O)c1ccccc1Cl)c1ccccc1F	0%	0%
COc1ccc(NC(=O)C(=O)c2c(C)n(C)c3ccccc23)cc1	36%[activator]	34%[activator]
COc1ccccc1NC(=O)C1=C(C)Nc2ncnn2C1c1cccn1C (stereo not given)	-6%	-13%
COc1cc(NC(=O)c2nnn(Cc3ccc(F)cc3)c2N)cc(OC)c1	221%[activator]	16%
O=C(Cn1nc(-c2cccs2)oc1=O)Nc1cccc(Cl)c1	-11%	13%
CC(O)CNS(=O)(=O)c1ccc(Cl)c(C(=O)O)c1 (stereo not given)	7%	-4%

Compounds shown so far with a thiophene ring, fused or not, in the order listed:
SMILES	2A Renilla	StopGo FLuc
COc1cc(C(=O)NCc2coc(-c3cccs3)n2)ccc1OC(F)F	-3%	-10%
O=C(Cn1nc(-c2cccs2)oc1=O)Nc1cccc(Cl)c1	-11%	13%

Arranged by number of heavy atoms (highest first): 3 of the compounds above
SMILES	2A Renilla	StopGo FLuc
COc1ccccc1NC(=O)C1=C(C)Nc2ncnn2C1c1cccn1C (stereo not given)	-6%	-13%
COc1cccc(CNC(=O)Cn2cccc2C(=O)c2ccccc2)c1	?	16%
CC(O)CNS(=O)(=O)c1ccc(Cl)c(C(=O)O)c1 (stereo not given)	7%	-4%

Next part:
SMILES	2A Renilla	StopGo FLuc
COc1cccc(NC(=O)NC(C)c2ccc(Cl)s2)c1 (stereo not given)	27%	-5%
CCC(C)n1c(SCc2nc3ccccc3o2)nc2ccccc2c1=O (stereo not given)	0%	?
CCn1c(SCc2nnc(C)o2)nc2sc(C)c(C)c2c1=O	17%	19%
COc1cc(C2c3c(oc4ccc(C)cc4c3=O)C(=O)N2Cc2ccc(F)cc2)ccc1O (stereo not given)	7%	-5%
S=C(NCc1ccccc1)N/N=C/c1cccnc1	-12%[1.06 µM]	0%
Cc1cccc(C(=O)NCC(=O)N(C)Cc2ccc(-c3ccc(Cl)cc3)o2)c1	1%	10%
O=C1CC(N2CCC(c3nc4ccccc4o3)CC2)C(=O)N1c1ccc(F)c(Cl)c1 (stereo not given)	-9%	-11%
Cc1oc(-c2ccc(Cl)cc2)nc1Cn1c(=O)cc(C)c2c(C)nn(-c3ccccc3)c21	-7%	-5%
O=C(CSc1nnc(N2CCOCC2)n1-c1cccc(F)c1)NCC(=O)Nc1ccc(F)cc1	-8%	-4%
O=C(/C=C/c1cccnc1)c1ccc2cccc3c2c1CC3	?	13%
Cc1cccc(C)c1NC(=O)c1nc2ccccc2nc1N1CCN(C)CC1	-16%	-8%
Cc1ccc(C)c2sc(NC(=O)c3ccc(S(=O)(=O)N(C)C)cc3)nc12	8%	1%
Oc1cccc(CNC(c2ccccc2)c2ccccc2)c1	10%	8%
COc1cc(-c2nn3c(C(C)(C)C)nnc3s2)cc(OC)c1OC	5%	-7%
CCOc1ccccc1NC(=O)CSc1ncc(S(=O)(=O)c2ccc(C(C)(C)C)cc2)c(=O)[nH]1	-7%	-11%
COc1ccccc1CNC(=O)C(=O)NCC(c1cccnc1)N1CCN(c2ccc(F)cc2)CC1 (stereo not given)	?	?
CNC(=O)c1ccc(-c2nc(CN3CCN(C(=O)Nc4ccc(C)cc4Cl)CC3)c(C)o2)cc1	11%	21%
COc1cccc(-c2cc(C(=O)NCCC(C)C)c3ccccc3n2)c1	34%[activator]	24%
CCCCN1C(=O)C(NC(=O)c2ccc(C(C)(C)C)cc2)(C(F)(F)F)C(C(C)=O)=C1C (stereo not given)	-9%	41%[activator]
Cc1nc(SCC(=O)c2cc(C)n(C(C)C)c2C)n[nH]1	13%	145%[activator]
CC(C)C(NC(N)=O)C(=O)Nc1ccc(Cl)cc1 (stereo not given)	-10%[1.06 µM]	-15%
COc1ccc(-c2nc(C)c(CCNC(=O)C(=O)Nc3cccc(F)c3)s2)cc1OC	6%	131%[activator]
Clc1ccc(CNCCN2CCCC2)cc1Cl	-2%	0%
Cc1cccc(-c2nc(C)c(CCNC(=O)C(=O)Nc3cccc(Cl)c3C)s2)c1	-4%	53%[activator]
Oc1ccc(-c2ccccc2)cc1	5%	86%[activator]
O=C(O)CC12CC3CC(Br)(C1)CC(CC(=O)O)(C3)C2	4%	-6%
CCOC(=O)c1ccc(NC(=O)Nc2cc3c(cc2N2CCCC2)n(C)c(=O)n3C)cc1	32%[activator]	36%[activator]
O=C(O)CCSc1ccccc1Cl	7%	3%
COc1ccc(-c2c(C)c3ccc(O)c(CN4CCC(C)CC4)c3oc2=O)cc1OC	-4%	20%
Cc1cn2c(=O)c(S(=O)(=O)Nc3ccc(F)cc3F)c(C)nc2s1	-2%	1%
Cc1ccc(NC(=O)CCS(=O)(=O)c2cccc3nsnc23)c(C)c1	-7%	-4%
COCCNC(=O)Cn1c(=O)c2cccn2c2ccc(F)cc21	-7%	-23%
CSc1nc(C(C)C)nc(C)c1C(=O)Nc1ccc(Cl)cc1F	5%	18%
COc1ccc(C(=O)Nc2nc3nc(C)c(Cc4ccccc4)c(=O)n3[nH]2)cc1OC	-11%	-8%
COC(=O)c1c(-c2ccc(Cl)cc2)noc1N1CCN(c2ccc(C(C)=O)cc2)CC1	-6%	-8%
CC(C)Sc1nc2c(c(=O)[nH]c(=O)n2C)n1Cc1ccccc1	-8%	-1%
Cc1cccc(CNC(=O)c2ccc3nc(-c4ccccc4)c(-c4ccccc4)nc3c2)c1	-5%	-6%
CN(C)CC(C)(C)CNC(=O)c1cc2cc(Cl)ccc2[nH]1	-11%	1%
O=C(Nc1ccc(Cl)c(-c2nc3ncccc3o2)c1)c1cc2ccccc2o1	59%[activator]	67%[activator]
Cc1ccc(-n2nc(CO)c(C(=O)NCCCCc3ccccc3)n2)cc1	-1%	-21%
Cc1[nH]n2c(=O)cc(-c3ccc4ccccc4c3)nc2c1-c1ccccc1	-3%	23%
O=C1C=Cc2ccc(Br)c3cccc1c23	-16%	4%
CCOc1ccc(NC(=O)CCc2c(C)nc3cc(-c4ccccc4OC)nn3c2C)cc1	-2%	17%
COc1ccc(N(CC(=O)NCCc2ccc(C)cc2)S(=O)(=O)c2c(C)nn(C)c2C)cc1	-4%	-21%
O=C(Cc1cccc2cccnc12)NCCc1ccccc1	0%	5%
Cn1ccc2cc(S(=O)(=O)N3CCN(C(=O)Nc4cccc(F)c4)CC3)ccc21	2%	13%
CC(C)c1ccc(CN(C(=O)c2cc(=O)c3ccccc3o2)C2CCS(=O)(=O)C2)cc1 (stereo not given)	-2%	-8%
OC(COc1ccc(F)cc1)CN1CCN(c2nccs2)CC1 (stereo not given)	-18%	-9%
CCCN(CCC)CCNC(=O)Cn1cc2c(n1)-c1c(oc(C(=O)N3CCCC3)c1C)CC2	-11%	-20%
CN1CCC(N(C)CCN(C)C(=O)Nc2ccccc2C(F)(F)F)CC1	-12%	-14%
Brc1ccc(-c2cc3ccccn3c2)cc1	7%	78%[activator]
Cc1nc(C)c(CC(=O)Nc2nnc(C3CC3)s2)c(=O)[nH]1	9%	13%
Cc1ccc2nsnc2c1NC(=O)COc1ccc(Cl)cc1	-12%	4%
CCc1nnc(NC(=O)c2nc(S(=O)(=O)Cc3cccc(C)c3)ncc2Cl)s1	-3%	3%
O=C(O)C12CC3CC(C(=O)O)(C1)CC(C(=O)O)(C3)C2	4%	2%
CCOC(=O)c1ccc(NC(=O)CC(c2ccc(OC)c(OC)c2)N2Cc3ccccc3C2=O)cc1 (stereo not given)	14%	-6%
NC(=O)NC(=O)COC(=O)c1cc(Cl)cc(Cl)c1	6%	10%
CCC12CN(C(=O)c3ccccc3)CC(CC)(CN(C(=O)c3ccccc3)C1)C2=O	-8%	-19%
COc1ccc2oc(-c3ccc(NC(=O)C(C)C)cc3)nc2c1	-8%	109%[activator]
Cc1ccc(CNc2nc(NCc3ccc(C)cc3)n(C(=O)c3ccco3)n2)cc1	11%	-6%

Profiles from above. Order of screens: 2A Renilla, StopGo FLuc
Results for Brc1ccc(-c2cc3ccccn3c2)cc1 : 7%, 78%[activator]
Results for CCC12CN(C(=O)c3ccccc3)CC(CC)(CN(C(=O)c3ccccc3)C1)C2=O : -8%, -19%
Results for CCCN(CCC)CCNC(=O)Cn1cc2c(n1)-c1c(oc(C(=O)N3CCCC3)c1C)CC2 : -11%, -20%
Results for Cc1ccc2nsnc2c1NC(=O)COc1ccc(Cl)cc1 : -12%, 4%
Results for CC(C)c1ccc(CN(C(=O)c2cc(=O)c3ccccc3o2)C2CCS(=O)(=O)C2)cc1 (stereo not given) : -2%, -8%

Continuation:
SMILES	2A Renilla	StopGo FLuc
Cn1c(=O)[nH]c(=O)c2c1nc(N1CCN(Cc3ccccc3)CC1)n2CCCc1ccccc1	-11%	-12%
C=C(C)c1cccc(C(C)(C)NC(=O)NCC2(C)CC(NC(=O)NC(C)(C)c3cccc(C(=C)C)c3)CC(C)(C)C2)c1 (stereo not given)	-5%	-3%
O=C(CSc1nnnn1C1CCCC1)N1N=C(c2cc3ccccc3o2)CC1c1ccco1 (stereo not given)	5%	118%[activator]
Nc1ccc([N+](=O)[O-])cc1	-9%[114 µM]	-6%[22.9 µM]
Cc1nc2ccc(S(=O)(=O)NCC(=O)NCc3ccc(Cl)cc3)cc2s1	18%	0%
Cn1cc(CC(=O)N2CCC(NC(=O)C3CC3)CC2)c2ccccc21	-12%	6%
Cc1c2cnn(CC(=O)N3CCCCC3)c(=O)c2c(C)n1Cc1ccc(F)cc1	-7%	17%
Cc1cc(NC(=O)c2cnn(-c3ccccc3)c2-n2cccc2)ccc1Br	-6%	32%[activator]
CCOC(=O)c1c(NC(C)=O)c2c3c(sc2n1Cc1nc(-c2ccccc2Cl)oc1C)CCCC3	0%	-17%
CN(Cc1ccccc1)C(=O)Nc1ccc2c(c1)N(C)C(=O)c1ccccc1S2	73%[activator]	11%
CCOc1ccc(N(C(C)C(=O)Nc2cc(Cl)ccc2OC)S(C)(=O)=O)cc1 (stereo not given)	35%[activator]	7%
Cc1cc(-c2ccc(C)c(S(=O)(=O)N3CCOc4ccc(Cl)cc43)c2)on1	?	?
CC(C)(C)c1nc2cc(NC(=O)Cc3ccc([N+](=O)[O-])cc3)ccc2o1	22%	67%[activator]
Cc1nnc(N2CCN(C(=O)Nc3cc(F)ccc3F)CC2)c2nn(-c3ccc(Cl)cc3)c(C)c12	-10%	-5%
CCOC(=O)c1[nH]c2c(c1Cc1ccccc1OC)C(=O)CC(c1ccc(OC)cc1)C2 (stereo not given)	44%[activator]	-12%
Cc1cc(C)cc(C(=O)Nc2ccc(-c3nc4ncccc4o3)cc2)c1	1%	29%
COc1cc(NC(=O)Cn2c(=O)ccc3cc(S(=O)(=O)N4CCCC4)ccc32)cc(OC)c1	-12%	?
Cc1ccc(C)c(NC(=O)Cn2cc(C(=O)c3ccc(Cl)cc3)c(=O)c3ccc(C)nc32)c1	-10%	-3%
COc1cccc(CNc2ccc3c(c2)ncn3C)c1OC	6%	89%[activator]
C=CCNC(=S)NC(C)c1ccccc1 (stereo not given)	38%[activator]	0%
Cc1c(-c2ccc(Cl)cc2)[n+](=O)c(-c2ccc(Cl)cc2)c(C)n1[O-]	5%	3%
